VDR inh: inhibitors of human vitamin D receptor; VDR-SRC2-3 peptide fluorescence polarization, 2 h; Potency, µM, without a hit: max response, negative = inhibition, actives largely listed as inhibitors; 400,000 tested, 0.93% active; active = well fitted inhibition curve with a large enough effect; inconclusive = small, poorly fitted or top-dose-only effect, or another doubt; inactive = no such curve, though single readings can be large or run the other way; also: series mostly up to about 120 µM
Target sequence (P11473 whole entry, looked up): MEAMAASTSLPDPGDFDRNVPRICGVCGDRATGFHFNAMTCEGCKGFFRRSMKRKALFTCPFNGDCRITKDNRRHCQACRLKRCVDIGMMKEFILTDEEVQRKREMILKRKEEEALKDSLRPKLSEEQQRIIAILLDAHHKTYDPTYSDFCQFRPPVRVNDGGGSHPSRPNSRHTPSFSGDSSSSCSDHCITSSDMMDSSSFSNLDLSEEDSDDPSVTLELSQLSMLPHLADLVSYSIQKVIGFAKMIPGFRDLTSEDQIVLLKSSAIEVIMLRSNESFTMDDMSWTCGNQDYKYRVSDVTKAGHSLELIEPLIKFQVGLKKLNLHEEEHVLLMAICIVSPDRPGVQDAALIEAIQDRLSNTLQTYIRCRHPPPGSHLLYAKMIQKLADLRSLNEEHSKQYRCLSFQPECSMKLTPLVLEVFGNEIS
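Fluorescence polarization assay measuring small-molecule disruption of VDR binding to the coregulator peptide SRC2-3. Compounds were pin-transferred (23 nl) into the reagent mix and incubated 2 h at room temperature before reading.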
Starred values were filed as active, the others as inactive; ? = inconclusive. % is scaled to controls: 0 for no effect and ±100 for the full control effect; potency is read from the fitted curve at half-maximal effect. The list is partial; the hit share may differ from the screen's.

SMILES,VDR inh
COc1ccc(C)cc1NC(=O)C(Sc1nnc(-c2cccs2)o1)c1ccccc1 (configuration not stated),-5%
CCCCn1c(N)c(N(CC)C(=O)c2ccco2)c(=O)[nH]c1=O,-7%
CCOC(=O)c1c(C)[nH]c(C)c1S(=O)(=O)N(C)CC(=O)Nc1ccc(C)cc1Br,20%
Cc1cc(C(F)(F)F)cc(NNC(=O)NC(=O)c2c(F)cccc2Cl)n1,-9%
Cc1ccc(S(=O)(=O)c2c(C)cc(C)nc2N2CCCC2)cc1,-10%
COc1ccc(C(=O)NCC(c2ccc(N(C)C)cc2)N2CCc3ccccc32)c(OC)c1 (configuration not stated),8%
CC(C)N1CC2=C(C1=O)C(c1ccc(O)cc1)NC(=O)N2C (configuration not stated),9%
CC1(C)CC(=O)/C(=C(/O)Cc2ccccc2)C(=NCCc2ccccc2)C1,-7%
Cc1cccc(Nc2ncnc3c2cnn3C)c1,1%
COc1cccc(N(CC(=O)NC(C)(C)C)C(=O)C2CSC(=O)C2)c1 (configuration not stated),3%
COc1ccc(OCC(=O)N2CCC(Cc3ccccc3)CC2)cc1,-13%
COC(=O)CSc1nc(NC(C)(C)C)nc(N(C)C)n1,-5%
CCCCn1c2c(c(=O)n(C)c1=O)C(CC(=O)OCC(=O)Nc1cccc(C(F)(F)F)c1)C(=O)N2 (configuration not stated),-18%
Cc1ccccc1NC(=O)C1c2cccc[n+]2CC(=O)N1c1c(C)cccc1C (configuration not stated),-22%
COc1ccccc1C(=O)NC(=S)Nc1ccc(N2CCCC2)cc1,-22%

Molecules listed so far that have a tert-butyl group (2):
SMILES,VDR inh
COc1cccc(N(CC(=O)NC(C)(C)C)C(=O)C2CSC(=O)C2)c1 (configuration not stated),3%
COC(=O)CSc1nc(NC(C)(C)C)nc(N(C)C)n1,-5%

The list goes on.
SMILES,VDR inh
CCN(CCNC(=O)c1cccc(N2CCCC2=O)c1)c1ccccc1,-1%
COc1c(Br)cc(Br)cc1/C=N/NC(=O)c1cccnc1,-4%
COc1ccc(C)cc1NC(=O)CN1CCN(c2ccc(F)cc2)CC1,-2%
COC(=O)Cc1[nH]nc2c1C(c1cccc(OC)c1OC)C(C#N)=C(N)O2 (configuration not stated),9%
O=C(NC1CCN(Cc2ccccc2)CC1)C12CC3CC(CC(C3)C1)C2,-15%
CCN(CC)CCC(c1cc(OC)c(OC)c(OC)c1)c1c(OC)cc(OC)c2c1OC(=O)CC2c1ccc(N(C)C)cc1 (configuration not stated),-14%
CCCN(C(=O)Cn1ncc2c([nH]c3ccccc32)c1=O)c1ccc(F)cc1,-1%
Cc1ccnc(NC(=O)c2cccc(S(=O)(=O)N3CCCC3)c2)c1,-4%
COc1ccccc1C(=O)Nc1nnc(-c2ccco2)s1,-1%
Cc1ccc(C)c(NS(=O)(=O)c2c(C)ccc3nsnc23)c1,10%
CCOc1ccc(NC(=O)/C(C#N)=C/c2ccc(N3CCCC3)c(C)c2)cc1,-7%
CC(Nc1cc(=O)n(C)c(=O)[nH]1)c1ccccc1 (configuration not stated),1%
N#Cc1c(SC(C(=O)O)c2ccccc2)nc2c(c1-c1cccs1)CCCC2 (configuration not stated),-28%
CC(C)C1CC(CCNCc2ccc(N(C)C)cc2)(c2ccccc2)CCO1 (configuration not stated),-5%
COC(=O)C1CN(C(=O)COc2ccc(C)cc2)c2ccccc2O1 (configuration not stated),5%

Molecules from the list above containing a halogen (6):
SMILES,VDR inh
CCOC(=O)c1c(C)[nH]c(C)c1S(=O)(=O)N(C)CC(=O)Nc1ccc(C)cc1Br,20%
Cc1cc(C(F)(F)F)cc(NNC(=O)NC(=O)c2c(F)cccc2Cl)n1,-9%
CCCCn1c2c(c(=O)n(C)c1=O)C(CC(=O)OCC(=O)Nc1cccc(C(F)(F)F)c1)C(=O)N2 (configuration not stated),-18%
COc1c(Br)cc(Br)cc1/C=N/NC(=O)c1cccnc1,-4%
COc1ccc(C)cc1NC(=O)CN1CCN(c2ccc(F)cc2)CC1,-2%
CCCN(C(=O)Cn1ncc2c([nH]c3ccccc32)c1=O)c1ccc(F)cc1,-1%

(further entries)
SMILES,VDR inh
CCC(=O)N(CC(=O)Nc1sc(C)c(C)c1C(N)=O)C1CCCCC1,12%
c1ccc2c(N3CCCCC3)nc(N3CCCC3)nc2c1,1%
CCN1CC(CN(C)Cc2cn(-c3ccc(C)cc3)nc2-c2cccc(C)c2)CC1=O (configuration not stated),5%
O=C(CC(=O)c1cc(Cl)ccc1O)c1ccccc1,-2%
Cc1ccc(Cn2c(NCCc3ccccc3)nc3c2c(=O)n(C)c(=O)n3C)cc1,-4%
CSc1sc(C)cc1/C=N/O,-28%
CC(C)(C)N=C1SCC(C)(/C=N/O)S1 (configuration not stated),10%
CCOc1ccc(-c2nc(C#N)c(NC3CC3)o2)cc1,6%
Cc1ccc2[nH]c(C(=O)N3CCC(C(N)=O)CC3)cc2c1,4%
COc1ccc(CNC(=O)C(C)Sc2ccc(S(=O)(=O)N3CCOCC3)cn2)cc1 (configuration not stated),-2%
CCCNc1ccc(C(=O)OCC)cc1[N+](=O)[O-],?
Cc1cc(=O)[nH]c(NCCO)n1,15%
O=C(N/N=C/c1sc(=O)n(Cc2ccc(Br)cc2)c1Cl)c1ccco1,10%
CC(C)(C)NC(=O)CN(Cc1cccs1)C(=O)c1csnn1,-7%
O=C(NNc1ccccc1Br)C(O)(c1cccc(C(F)(F)F)c1)c1cccc(C(F)(F)F)c1,-23%
CCOC(=O)c1ccc(NC(=O)/C(C#N)=C/c2ccc(OC)cc2)cc1,-13%
COc1ccc(-n2ncc3c(SCC(=O)NNC(C)=O)ncnc32)cc1,-3%
O=C(COc1ccccc1)NC1CCSc2ccccc21 (configuration not stated),8%
O=C(CSc1nncn1-c1cccnc1)Nc1ccccc1C(F)(F)F,-2%
CCN1CCCc2cc(CN(CCN3CCOCC3)C(=S)Nc3cc(F)cc(F)c3)ccc21,9%
CCOc1ccccc1-c1nc(C(N)=O)c2[nH]c(=O)n(-c3cccc(C)c3)c2n1,7%
COc1cc(NS(=O)(=O)c2ccc(C)cc2)c2ncccc2c1,-9%
Cc1ccc2nc(SC(C)C(=O)NC3CCCC3)[nH]c2c1 (configuration not stated),-2%
Cc1cccc(Cn2c(=O)n(-c3cc(C)cc(C)c3)c(=O)c3oc4ccccc4c32)c1,8%
CCCSc1ccc([C@@H]2[C@@H]3C(=O)N(CC)C(=O)[C@@H]3[C@]3(C(=O)OC)CCCCN23)cc1OC,7%
Cc1ccc2[nH]cc(CCNC(=O)CN3C(=O)c4ccccc4C3=O)c2c1,9%
COc1cccc(-c2nc(CS(=O)(=O)CC(=O)NC3CCCCCC3)c(C)o2)c1,-11%
Cc1cc(C)c2c(n1)sc1c(O)cc(=O)[nH]c12,-6%
COc1ccccc1C(=O)NCCC(=O)N1CCN(S(=O)(=O)c2ccccc2C(F)(F)F)CC1,-21%
CCCCNc1ccc(-c2nc(-c3ccco3)no2)cc1[N+](=O)[O-],10%
CCOc1ccc(S(=O)(=O)n2nc(C)c(S(=O)(=O)N3CCCCC3)c2C)cc1,-1%
O=C(NC(Cc1c[nH]c2ccccc12)C(=O)N/N=C/c1ccc(Cl)cc1)c1cccs1 (configuration not stated),3%
COc1ccccc1CC(=O)N1CCN(c2cccc(C(F)(F)F)c2)CC1,-16%
CN1CCc2c(sc(NC(=O)c3ccc(S(=O)(=O)N4CCCCCC4)cc3)c2C(N)=O)C1,-13%
Cc1cccc(Cn2cc(SCC(=O)Nc3nccs3)c3ccccc32)c1,-6%
C=C(CCO)C1=CCN(S(=O)C(C)(C)C)[C@@H]1CCO (some centres not stated),-2%
CCOc1nc(C)ccc1-c1noc(CC)n1,0%
CC(C)OC(=O)CC(=O)CSc1nc(-c2ccc(F)cc2)cc(-c2ccccc2)c1C#N,?
Cc1ccccc1-n1c(=O)c2c3c(sc2n2cnnc12)CCCC3,12%
COc1cc(CNC(=O)c2ccc3c(c2)S(=O)(=O)c2ccccc2C3=O)cc(OC)c1,-7%
O=C(c1ccc2c3c(cccc13)CC2)N1CCN(c2ncccn2)CC1,7%
COC(=O)c1cccc(NC(=O)c2cccc(N3C(=O)CCC3=O)c2)c1,-3%
COC(=O)N[C@@H](/C=C/c1ccccc1)/C(C(=O)OC)=C(\C)NCc1ccccc1,-19%
Cn1c(=O)c2c(ncn2CC(=O)OCC(=O)NC2CCCc3ccccc32)n(C)c1=O (configuration not stated),1%
CC1CCN(S(=O)(=O)c2ccc3c(c2)N(CC(=O)NC(C)c2ccccc2)C(=O)CO3)CC1 (configuration not stated),3%
O=c1c2[nH]cnc2n(-c2cccc(Br)c2)c(=O)n1Cc1ccccc1,1%
CN(C)S(=O)(=O)c1ccc(C(=O)NCC2CC2(Cl)Cl)cc1 (configuration not stated),?
CCc1ccccc1NC(=O)c1cnn(-c2ccccc2)c1C,-2%
Cc1ccc(NC(=O)CSc2[nH]c(=O)ncc2C)cc1,5%
CN(C)Cc1ccccc1CCc1ccccc1,10%
COc1ccc(NC(=O)CSc2n[nH]c(-c3ccco3)n2)cc1,0%
COc1ccc(NC(=O)NCc2cccn2Cc2ccc(F)cc2)cc1OC,-1%
C=CCOc1ccc(CNCc2cccnc2)cc1,4%
COc1cccc(C(=O)NCC(=O)N/N=C(C)\C=C\c2ccccc2)c1,-10%
Cn1c(=O)c2c(-c3cccc(Br)c3)n(C(C)(C)CO)cc2n(C)c1=O,14%
O=C(c1cccc(-c2nnc(-c3ccccc3)o2)c1)N1CCCCC1,1%
CCOc1ccc(S(=O)(=O)Nc2cccc(C(=O)NCCCn3ccnc3)c2)cc1,0%
C[C@H](CO)N1C[C@H](C)[C@@H](CN(C)C)Oc2c(NS(=O)(=O)c3ccccc3)cccc2C1=O,-19%
CSc1cccc(NC(=O)COC(=O)C2CCN(S(=O)(=O)c3ccccc3)CC2)c1,-7%
COc1ccc(CNC(=O)C2CCN(C(=O)c3ccc(-n4ccc5ccccc54)s3)CC2)cc1,13%

Next section
SMILES,VDR inh
CN(C)CCNC(=O)Nc1ccc(F)cc1F,-9%
Cc1ccc(C)c(OCCC(=O)OCC(=O)NC2CCCC2)c1,-26%
COc1ccc(CC(=O)NNc2ncnc3c2cnn3-c2ccc(C)cc2)cc1,13%
Cc1cc(/C=C2/NC(=O)NC2=O)c(C)n1-c1ccc(C#N)cc1,?
CC(=O)Nc1ccc(/C=C/c2nc3ccccc3[nH]c2=O)cc1,9%
CC12CCC(c3c(C(=O)N4CCOCC4)nn(-c4ccccc4)c31)C2(C)C (configuration not stated),-22%
CC(C)NC(=O)c1ccccc1NC(=O)c1ccccc1N(C)S(C)(=O)=O,-3%
COc1ccc(/C=N/NC(=O)c2ccccc2NC(=O)c2ccco2)c(OC)c1,-21%
O=C1NC(CCc2ccccc2)C(=O)N1Cc1cccc2ccccc12 (configuration not stated),-10%
CC(CC(=O)N1CCN(c2ccccc2)CC1)S(=O)(=O)c1ccc2c(c1)NC(=O)CO2 (configuration not stated),-8%
Cc1cc(=O)[nH]c(Nc2ccc(Cl)cc2)n1,-15%
Cc1nc2ccccn2c(=O)c1NC(=O)c1cccc(F)c1,9%
CC1=Nn2c(nnc2-c2ccccc2)SC1,1%
N#Cc1nc(-c2cccc3ccccc23)oc1NCC1CCCO1 (configuration not stated),-21%
CCCCC(=O)Nc1ccccc1C(=O)OCC(=O)c1ccc2c(c1)OCCO2,-5%

Quoted from the listing:
Cc1cc(=O)[nH]c(Nc2ccc(Cl)cc2)n1 | VDR inh = -15%
CC(CC(=O)N1CCN(c2ccccc2)CC1)S(=O)(=O)c1ccc2c(c1)NC(=O)CO2 (configuration not stated) | VDR inh = -8%

Next section.
SMILES,VDR inh
Cn1cc(CNCc2ccc(OC(F)(F)F)cc2)c(-c2ccc3c(c2)OCCO3)n1,2%
CC(C)(C)OC(=O)NC1CNNC1=O (configuration not stated),-5%
Cc1ccc(C)c(S(=O)(=O)NCCc2csc(-c3ccc(Cl)cc3)n2)c1,4%
Cc1cccc(NC(=O)CN(C)S(=O)(=O)c2ccc3c(c2)c(=O)n(C)c(=O)n3C)c1C,0%
Cc1cc(C)c(C)c(C(=O)c2ccccc2C(=O)O)c1C,-12%
O=C(Nc1ccc2oc(=O)ccc2c1)c1ccc(-c2cccc([N+](=O)[O-])c2)o1,-18%
CCOC(=O)C(=CNc1cccc(C)n1)C(=O)OCC,-15%
CCOC(=O)c1sc(NC(=O)C(C)Sc2nnc(N)s2)nc1C (configuration not stated),-4%
Cn1cc(S(=O)(=O)N2CCc3ccccc32)cc1C(=O)Nc1ccc(C(F)(F)F)cc1,-4%
CN(CC(=O)Nc1ccc(F)cc1)C(=O)C1CCN(C(=O)Nc2ccccc2)CC1,10%
COC(=O)c1cc(=O)n(Cc2ccc(F)cc2)c(=Nc2ccccc2)s1,?
COc1ccc(C(=O)/C=C/c2ccc(N3CCCCC3)c([N+](=O)[O-])c2)c(OC)c1,?
Cc1cc(N2CCCC2=O)c(N)cc1N,-11%
CC(=O)N1c2c(cc(Br)cc2S(=O)(=O)Nc2ccccc2C)CC1C (configuration not stated),-16%
CC1CCC(=NNC(=O)Cc2cccn2C)CC1 (configuration not stated),15%
CCc1cc(C(=O)OC)c(NC(=O)CN2CCN(C(=O)c3ccco3)CC2)s1,?
Cc1cc(C)c(NC(=O)COC(=O)/C=C/c2cccs2)c(C)c1,-11%
NS(=O)(=O)c1cccc(NC(=O)CSc2nnc(C3CC3)n2-c2ccccc2)c1,13%
Cc1ccc(-c2nc(C(=O)NCC3CCCO3)cc3c2[nH]c2ccccc23)cc1 (configuration not stated),-5%
Cc1ccc(/C(N)=N/OC(=O)Cc2cccc3ccccc23)cc1,-4%

High-throughput results from PubChem.
